gsp antag = qHTS for Antagonists of gsp, the Etiologic Mutation Responsible for Fibrous Dysplasia/McCune-Albright Syndrome: qHTS. 340,000 tested, 0.4% active. gsp-mutant cells, cAMP HTRF, 30 min; control for the full effect not named in the record. Potency, µM (doses to about 76.9 µM), for inactives: at the highest dose activity change, negative = inhibition, actives largely listed as inhibitors. AID 624288, 2012; active = falling curve of any shape with a large fitted effect; inconclusive = falling curve, mostly with a smaller effect; inactive = flat or rising curve; cell line not stated here;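 further: intracellular cAMP measured with PDE inhibitor Ro 20-1724 present during compound exposure; potency means the concentration at half of the fitted maximal effect; on the % scale 0 is the no-effect control and ±100 the full control effect; nearly all actives have a fitted effect of over 65% in size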
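HTRF cAMP measurement after 30 min RT detection following 30 min, 37C compound treatment alongside […] (added as 300 uM solution) in G418-selected cells seeded at 2000/well and grown 16–24 h.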
D2 PAM = Beta-Arrestin HTS for Positive Allosteric Modulators of the Human D2 Dopamine Receptor: Potentiators; D(2) dopamine receptor (Homo sapiens), P14416; DiscoveRx D2 beta-arrestin cells, luminescence, 90 min; 100% = 57 uM dopamine signal; potentiation, % (test concentration not listed); 360,000 tested, 0.23% active; AID 624464, 2012; active = potentiation of 50% or more; inconclusive = 30% to 50%; inactive = 30% or less;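 further: compound concentration not given in the record; tested on top of an EC20 dose of dopamine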
Target sequence (P14416 whole entry, looked up): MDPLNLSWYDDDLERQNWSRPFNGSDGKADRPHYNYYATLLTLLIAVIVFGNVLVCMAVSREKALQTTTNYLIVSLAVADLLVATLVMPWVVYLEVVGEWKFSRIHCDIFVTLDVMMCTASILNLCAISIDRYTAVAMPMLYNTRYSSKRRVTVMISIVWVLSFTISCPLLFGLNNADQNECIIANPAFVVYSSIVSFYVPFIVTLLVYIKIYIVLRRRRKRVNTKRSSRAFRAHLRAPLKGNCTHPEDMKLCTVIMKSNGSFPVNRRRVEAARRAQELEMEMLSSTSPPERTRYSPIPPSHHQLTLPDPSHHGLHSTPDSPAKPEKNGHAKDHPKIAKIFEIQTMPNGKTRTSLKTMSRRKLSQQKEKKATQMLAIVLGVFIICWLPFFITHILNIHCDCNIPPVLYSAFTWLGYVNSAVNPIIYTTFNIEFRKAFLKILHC
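PathHunter beta-arrestin assay in DiscoveRx D2 cells. Compounds were added with an EC20 of dopamine (50 nM final) for 90 min at 37 deg C. Luminescence was read 1 h after detection reagent, with 57 uM dopamine as the EC100 control.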
Six1-Eya2 blk = qHTS Assay for Inhibitors of the Six1/Eya2 Interaction; activity change, % (no concentration beside the values); 360,000 tested, 0.56% active; AlphaScreen GST-Six1/His-Eya2 binding, biochemical; active compounds read low; control for the full effect not named in the record; in the data active = activity change below about -65%; inconclusive = about -30% to -65%; inactive = above about -30%; further: on the % scale 0 is the no-effect control and ±100 the full control effect
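Homogeneous AlphaScreen proximity assay pairing GST-Six1 with His-tagged Eya2 (added as 5X mix: 250 nM and 500 nM) in 50 mM Tris pH 8.0, 300 mM NaCl, 1 mM TCEP. Glutathione donor and nickel acceptor beads; 1 h, 37 °C, dark.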
CtBP-E1A inh = qHTS Assay for Inhibitors of the CtBP/E1A Interaction | CtBP / adenovirus E1A interaction (AlphaScreen) | activity change, % (test concentration not listed) | AlphaScreen GST-E1A/His-CtBP binding, 1536-well; active compounds read low; control for the full effect not named in the record | 340,000 tested, 0.49% active; in the data active means activity change below about -65%; inconclusive means about -30% to -65%; inactive means above about -30%; further: on the % scale 0 is the no-effect control and ±100 the full control effect
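Homogeneous bead-based format: GST-tagged E1A captured on glutathione donor beads, His-tagged CtBP on nickel acceptor beads; compounds precede bead addition by 2 h at 37 °C.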
gsp agonist = qHTS for Agonist of gsp, the Etiologic Mutation Responsible for Fibrous Dysplasia/McCune-Albright Syndrome: qHTS. Potency, µM (top dose mostly 76.9 µM), inactives show at the highest dose activation (cAMP increase), usual class: activators. AID 624287, 2012. 340,000 tested, 0.13% active. gsp mutant cells, cAMP HTRF, 30 min; control for the full effect not named in the record; active = well fitted activation curve with a large enough effect; inconclusive = small, poorly fitted or top-dose-only effect, or another doubt; inactive = no such curve, though single readings can be large or run the other way; cell line not stated here;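 further: phosphodiesterase inhibitor Ro 20-1724 added with compounds to block cAMP breakdown; potency means the concentration at half of the fitted maximal effect; nearly all actives have a fitted effect of over 60% in size; about a fifth of the inactives were tested at one dose only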
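Cells stably selected in G418 were plated at 2000/well, grown 16-24 hr, then given compounds in DMSO with the PDE inhibitor […] (300 uM solution added) for 30 min at 37C; cAMP was read by HTRF.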
D2 ag = Beta-Arrestin HTS for Positive Allosteric Modulators of the Human D2 Dopamine Receptor: Agonists. D(2) dopamine receptor (Homo sapiens), P14416. DiscoveRx PathHunter D2 beta-arrestin, luminescence, 90 min; 100% = 57 uM dopamine signal. activation, % (test concentration not listed). 360,000 tested, 0.084% active; in the data active = activation above about 40%; inconclusive = about 15% to 40%; inactive = below about 15%; further: compound concentration not given in the record; the text of the record calls up to 30% inactive
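Agonist mode: compounds alone added to overnight-plated D2 PathHunter cells for 90 min at 37 C, with 57 uM final dopamine (EC100) defining full response. Beta-arrestin recruitment detected by chemiluminescent reagent, read after 1 h at ambient temperature.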
* = called active by the depositor; ? = inconclusive; · = no result given; & = joins results of further samples; [ ] = remark or other dose.

SMILES | gsp antag | D2 PAM | Six1-Eya2 blk | CtBP-E1A inh | gsp agonist | D2 ag
Cc1cccc(NC(=O)c2cccc(S(=O)(=O)N(C)C3CCCCC3)c2)n1 | · | -11.5 | 1.8 | 0.0 | -66.7%[inhibitor] | -0.7
Cc1csc(NC(=O)/C=C/c2ccco2)n1 | -3.4% | 1.4 | -14.0 | 11.5 | -8.6%[15.4 µM] | -3.8
CS(=O)(=O)N(CC(=O)Nc1cc(Cl)ccc1Cl)c1ccccc1Cl | -13.1% | -13.4 | -1.4 | -8.0 | 17.5% | -3.2
CCOC(=O)c1ccc2ncc(C(=O)OCC)c(Nc3ccc(N4CCOCC4)cc3)c2c1 | ? | 1.3 | -17.4 | -24.1 | -29.3% | 0.4
CC(C)CN(CC(C)C)S(=O)(=O)N1CCC(C(=O)NCCN2CCOCC2)CC1 | -3.0% | -11.5 | 2.8 | 15.8 | 1.4% | -0.7
COc1ccc(NC(=O)Cn2c([N+](=O)[O-])cnc2C)c(OC)c1 | · | -17.0 | 1.4 | -13.9 | -30.5%[inhibitor] | -1.4
COc1cccc2c1OCC/C2=N\NC(=O)COc1ccc(C)cc1 | -2.5% | -18.5 | 2.1 | 3.8 | -41.5%[inhibitor] | 1.8
COc1ccc(/C=N/NC(=O)c2cccc(NC(C)=O)c2)c(OC)c1 | 3.2% | -2.6 | -4.4 | 13.6 | 5.1%[15.4 µM] | 3.6
O=C(NCc1ccccc1)c1ccc(NC(=O)C2CCCO2)cc1 (stereo not given) | 11.5% | 2.3 | 1.4 | 5.0 | ? | -0.8
O=C1ON=C(c2ccccc2)/C1=C\c1ccco1 | 7.4% | 0.2 | -14.7 | 8.1 | 14.6% | -3.1
CNC(=O)[C@H]1O[C@@H](n2cnc3c(NCc4cccc(I)c4)ncnc32)[C@H](O)[C@@H]1O | -0.5% | 8.3 | -3.0 | 2.8 | · | 0.7
COc1cccc(C(=O)Nc2ccc(NC(=O)c3ccco3)nc2)c1 | -7.0% | -9.2 | 12.2 | 0.0 | 24.4% | -4.0
CCn1c(C2CC(=O)N(Cc3ccccc3)C2)nc2ccccc21 (stereo not given) | 6.1% | -4.8 | 0.1 | 3.4 | -37.4% | -1.4
Cc1cc(C)c2c(-n3cccc3)c(NC(=O)OC(C)C)sc2n1 | -3.7% | 7.2 | -6.5 | 9.2 | -20.8% | 4.7
S=C(Nc1cccc2ccccc12)Nc1cccc2ccccc12 | 9.3% | -16.3 | -15.4 | -11.2 | -4.8% | -1.8
FC(F)(F)c1ccccc1Cc1c(-c2cccc(Br)c2)nc2ccc(Cl)cn12 | · | -1.5 | 1.0 | 5.4 | · | -2.8
CC(C)c1ccc(CNc2ccc([N+](=O)[O-])cn2)cc1 | 11.7% | -12.2 | -8.8 | -0.5 | -13.0%[15.4 µM] | -2.5
COC(=O)CSc1[nH]c2ccc(F)cc2c1[N+](=O)[O-] | -4.3% | -16.5 | 3.7 | · | 21.4% | -6.0
COc1ccc(C(=O)C2CCCN(Cc3ccc4nonc4c3)C2)c(C)c1 (stereo not given) | -11.8% | -19.8 | 3.1 | -0.8 | 28.8% | -1.2
O=C(CN1CCOCC1)Nc1cc(Cl)ccc1Cl | 6.2% | 6.0 | 7.0 | 2.0 | -6.7% | 5.1
CCC(=O)c1ccc(OCC(=O)OCC(=O)N(C)CC(=O)Nc2ccc(F)cc2)cc1 | -11.6% | 22.0 | 2.2 | -0.7 | 13.7% | 0.7
c1ccc2c(c1)NC1(CCCCC1)n1c-2nc2ccccc21 | -0.6% | -2.6 | 0.0 | -10.1 | 10.1% | -4.3
COc1ccc(/C=C(/C(=O)c2ccc(Cl)cc2Cl)n2cncn2)cc1 | -30.8% | -1.5 | 2.8 | -3.1 | 14.3% | -1.9
CC(=O)Nc1ccc(NC(=O)C(C)Oc2ccc(Cl)cc2Cl)cc1 (stereo not given) | -7.0% | -8.5 | 2.3 | · | -1.5% | 0.8
CCc1cc2cccc(C)c2nc1SCC(=O)c1ccc(NC(C)=O)cc1 | -7.4% | 2.2 | 2.7 | 1.8 | 3.8% | -1.6
COc1ccc(-c2nn(-c3ccccc3)cc2/C=N/NS(=O)(=O)c2ccccc2)cc1 | ? | -0.8 | -8.6 | -5.7 | 3.8% | -7.3
Cc1c(C(=O)NCc2cccnc2)sc2nc(-c3ccc(F)cc3)cn12 | -10.3% | -8.1 | 0.0 | 5.4 | -73.7%[inhibitor] | 1.4
Cc1cccc2cc(C#N)c(SCC#N)nc12 | 3.6% | -0.4 | -5.5 | · | ? | -1.2
CCCCCOc1ccc(C(=O)C(c2ccccc2)N2CCOCC2)cc1 (stereo not given) | 12.0% | -20.0 | 3.2 | 5.9 | 18.4% | -4.3
COc1ccc2c(c1)O[C@@H](c1cccc(C(F)(F)F)c1)[C@H](OC(=O)Nc1ccc(OC(F)F)cc1)C2=O | 11.2µM* | -6.2 | -4.7 | 2.9 | 8.1% | -3.2
Cc1ccnc(NC(=O)CCN2C(=O)c3ccccc3S2(=O)=O)n1 | 8.9% | 5.5 | 0.6 | 16.3 | -68.7%[inhibitor] | -3.5
C=CCNc1nnc(SCC(=O)N2CCC(C(N)=O)CC2)s1 | 0.0% | -10.3 | 3.2 | 0.2 | -6.3% | -0.8
O=C1CCC(C2CCc3cc(O)ccc3C2)C1 (stereo not given) | 2.8% | -8.6 | -11.6 | 3.4 | 6.2%[15.4 µM] | -2.2
Cc1ccc(-c2csc(N3CCN(c4cc5c(cc4Cl)nc(-c4ccncc4)n5CCN4CCCCC4)CC3)n2)cc1 | -3.0% | -11.5 | -13.3 | · | · | -1.9
COC(=O)c1cccc(NC(=O)Cc2ccc(OC)cc2)c1C | 9.8% | -4.1 | 0.4 | 13.0 | 7.7% | -1.8
Cc1ccc(NC(=O)CN(C)C(=O)c2cc(S(=O)(=O)N(C)C)ccc2N2CCCC2)cc1 | -10.5% | -15.5 | 0.6 | 5.0 | -31.3%[inhibitor] | -2.8
CN(C)CCCNc1cn[nH]c(=O)c1Cl | 12.5% | -11.5 | 5.1 | 7.9 | -35.9%[inhibitor] | -0.7
CSc1sccc1/C=N/NC(=O)c1ccncc1 | -22.3% | -7.4 | -4.7 | · | 6.4% | -8.5
CC(C(=O)O)c1ccc(-c2ccccc2)c(F)c1 (stereo not given) | -18.1%&-23.0% | -1.9&-1.7 | -0.1&3.2 | 0.2&9.1 | · | 5.5&-5.2
CC(C)CN(C(=O)COC(=O)c1cnc(Cl)c(Cl)c1)c1c(N)n(Cc2ccccc2)c(=O)[nH]c1=O | -21.0% | -21.7 | 4.6 | 5.5 | -4.5% | -5.3

Entries above that have a thiophene ring, fused or not (2):
SMILES | gsp antag | D2 PAM | Six1-Eya2 blk | CtBP-E1A inh | gsp agonist | D2 ag
Cc1cc(C)c2c(-n3cccc3)c(NC(=O)OC(C)C)sc2n1 | -3.7% | 7.2 | -6.5 | 9.2 | -20.8% | 4.7
CSc1sccc1/C=N/NC(=O)c1ccncc1 | -22.3% | -7.4 | -4.7 | · | 6.4% | -8.5

More records follow.
SMILES | gsp antag | D2 PAM | Six1-Eya2 blk | CtBP-E1A inh | gsp agonist | D2 ag
CCc1ccc(N(C(=O)c2csnn2)C(C(=O)NC(C)(C)C)c2cccnc2)cc1 (stereo not given) | 12.6% | -6.3 | -0.1 | 15.6 | -30.6%[inhibitor] | 0.9
CCCOc1ccc(C(=O)Nc2ccc(S(=O)(=O)Nc3cc(C)nc(C)n3)cc2)cc1 | -18.6% | -14.4 | -5.6 | · | -12.3% | -3.9
CC(C)C(=O)Nc1cccc(C(=O)Nc2cc([N+](=O)[O-])ccc2Cl)c1 | -26.5% | -0.4 | 3.8 | · | -19.6% | 8.2
Cc1cccc(CN2CCN(C3CN(C4CCCC4)S(=O)(=O)C3)CC2)c1 (stereo not given) | · | -14.2 | 12.4 | -17.4 | · | -6.3
Cc1onc(-c2ccccc2)c1C(=O)NCCCc1ccccc1 | 4.2% | -7.6 | 5.1 | 11.3 | 21.5% | -5.3
COc1ccc(-c2csc3nc(-c4cccnc4)nc(N4CCC(C(N)=O)CC4)c23)cc1OC | -7.0% | -1.9 | -0.4 | -1.6 | ? | 2.7
CN1CCN(c2ccc(Cl)cc2NC(=O)/C=C/c2cccc(F)c2)CC1 | -1.7% | -11.1 | -3.1 | -1.6 | ? | 1.1
COc1ccc(C(=O)COC(=O)CNC(=O)c2cccs2)cc1Br | -3.9% | -1.0 | -14.6 | -12.9 | 14.9%[15.4 µM] | -1.7
O=c1c2c3c(sc2ncn1/N=C/c1ccncc1)CCCC3 | -20.6% | -4.1 | 6.7 | 5.5 | 19.1%[15.4 µM] | -0.8
O=C(Nc1ccccc1)c1oc2ccccc2c1NC(=O)C1CC1 | ? | -7.9 | -2.1 | 4.6 | -1.7% | 2.8
CCN(Cc1ccccc1)S(=O)(=O)c1nc2nc(C)c(C)c(C)n2n1 | 0.4% | -3.1 | 4.3 | -3.8 | 26.3% | -0.6
COCCC(=O)N1CCC(Oc2ccc(C(=O)N3CCCCC3CCO)cc2)CC1 (stereo not given) | -3.4% | -1.3 | -6.4 | 3.8 | 6.4%[15.4 µM] | -1.5
CCC(=O)Nc1ccc(/C(C)=N/NC(=O)c2c(-c3ccccc3Cl)noc2C)cc1 | 3.6% | -12.8 | -0.7 | 0.0 | ? | 0.1
CN(C(=S)NC(=O)c1ccccc1)C1CCCCC1 | 13.6% | 1.5 | 1.0 | 4.3 | -3.2% | 3.7
COc1ccc(CCc2nc(-c3cccs3)no2)cc1 | -13.2% | -2.3 | 23.1 | · | -31.9%[inhibitor] | -2.1
CCCS(=O)(=O)Nc1ccc(N2CCCCC2)c(S(=O)(=O)Nc2ccccc2OC)c1 | -16.6% | -11.9 | -11.5 | -0.6 | 4.4% | -0.7
OC1CCCN(c2c3c(nc4cc(-c5cccc(F)c5)nn24)CCCC3)C1 (stereo not given) | -30.6% | 2.4 | 2.4 | 6.3 | 0.6%[15.4 µM] | -0.5

Given field by field: part of the list above.
COc1ccc(C(=O)COC(=O)CNC(=O)c2cccs2)cc1Br
  gsp antag: -3.9%	D2 PAM: -1.0	Six1-Eya2 blk: -14.6	CtBP-E1A inh: -12.9	gsp agonist: 14.9%[15.4 µM]	D2 ag: -1.7

O=c1c2c3c(sc2ncn1/N=C/c1ccncc1)CCCC3
  gsp antag: -20.6%	D2 PAM: -4.1	Six1-Eya2 blk: 6.7	CtBP-E1A inh: 5.5	gsp agonist: 19.1%[15.4 µM]	D2 ag: -0.8

O=C(Nc1ccccc1)c1oc2ccccc2c1NC(=O)C1CC1
  gsp antag: ?	D2 PAM: -7.9	Six1-Eya2 blk: -2.1	CtBP-E1A inh: 4.6	gsp agonist: -1.7%	D2 ag: 2.8

Source: PubChem BioAssay (National Center for Advancing Translational Sciences (NCATS))
